Mtb growth: M. tuberculosis H37Rv growth inhibitors, H37Rv strain (AID 1626) | M. tuberculosis H37Rv growth inhibition; higher % means a stronger effect | inhibition, % at 10 µM, or IC50 in µM where a hit was titrated | 220,000 compounds, 0.95% hits;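 active means confirmed in a dose series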;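 further: bacteria incubated seven days before Alamar blue readout; 0% = bacteria only wells and 100% = bacteria with antibiotic wells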
RecA splice inh: Mtb RecA intein splicing inhibitors, primary screen, biochemical, fluorescence, HTS | Protein RecA (Mycobacterium tuberculosis (strain ATCC 25618 / H37Rv)), P9WHJ3 | cell-free RecA intein splicing | inhibition, %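 (about 9 µM by stock and volumes)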 | 290,000 compounds, 0.75% hits | AID 2221, 2009; in the data active means inhibition above about 30%;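 further: 0% = vehicle wells and 100% = reference inhibitor control wells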
Target sequence (P9WHJ3 whole entry, looked up, canonical isoform): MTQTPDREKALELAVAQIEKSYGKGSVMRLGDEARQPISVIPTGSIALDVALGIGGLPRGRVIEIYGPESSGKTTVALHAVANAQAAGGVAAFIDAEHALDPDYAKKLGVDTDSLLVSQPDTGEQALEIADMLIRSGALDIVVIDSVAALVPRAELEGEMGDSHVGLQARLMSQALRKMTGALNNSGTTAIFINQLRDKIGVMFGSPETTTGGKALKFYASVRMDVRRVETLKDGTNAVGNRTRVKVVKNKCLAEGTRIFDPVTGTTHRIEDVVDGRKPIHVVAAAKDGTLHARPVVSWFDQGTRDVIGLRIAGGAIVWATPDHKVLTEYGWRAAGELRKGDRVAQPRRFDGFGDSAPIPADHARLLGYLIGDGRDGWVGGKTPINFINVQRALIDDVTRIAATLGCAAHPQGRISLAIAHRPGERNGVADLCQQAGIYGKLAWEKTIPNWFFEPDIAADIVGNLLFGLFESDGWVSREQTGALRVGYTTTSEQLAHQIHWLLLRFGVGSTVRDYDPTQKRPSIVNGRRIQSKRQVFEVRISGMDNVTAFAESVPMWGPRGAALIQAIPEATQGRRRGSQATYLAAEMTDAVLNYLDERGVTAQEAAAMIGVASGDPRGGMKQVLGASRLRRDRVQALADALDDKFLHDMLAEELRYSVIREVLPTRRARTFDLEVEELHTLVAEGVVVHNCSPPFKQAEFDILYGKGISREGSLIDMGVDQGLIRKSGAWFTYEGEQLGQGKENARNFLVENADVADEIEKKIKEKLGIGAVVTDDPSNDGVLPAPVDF
Arbovirus inh: antivirals against arbovirus infection, primary screen, cell-based, full library, 10K replicate subset; arbovirus infection cell-based antiviral screen; inhibition, % at 10 µM; 200,000 compounds, 0.37% hits; AID 1251, 2008;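 active means inhibition from about 30%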;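 further: bluetongue infection of BSR cells; cell survival read as ATP light after 72 h; 0% = infected wells without compound and 100% = uninfected wells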
YopH inh: YopH tyrosine phosphatase inhibitors, primary screen, biochemical, fluorescence Ex485/Em525; inhibition, %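 (about 10 µM by stock and volumes)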; 140,000 compounds, 0.16% hits; YopH tyrosine phosphatase [Yersinia enterocolitica];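 active means inhibition of 50% or more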;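 further: controls were vehicle for no effect and minimum signal wells for full effect; inactives centre near -20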
Mtb betalactam: beta-lactam sensitization of Mtb H37Rv, H37Rv | inhibition, % at 25 µM | 330,000 compounds, 0.27% hits | M. tuberculosis H37Rv growth with meropenem, percent inhibition; hits of this screen are not shown here;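 active means about 74% or more and at least 40 points above the plate without the antibiotic, then above 30% in a dose series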;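 further: growth measured after seven days incubation then overnight dye step; 0% = bacteria only wells and 100% = bacteria with antibiotic; twin plates without the antibiotic show which effects depend on it; some results filed as inactive read as strong as hits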
* marks the source's active call; other numbers are inactive results; x = not tested or not shown. This is a subset; count on the stated rates, not on these rows.

The first 18 records (preview)
SMILES	Mtb growth	RecA splice inh	Arbovirus inh	YopH inh	Mtb betalactam
O=C(Nc1ccc(C(=O)NCCCN2CCN(c3ccc(F)cc3)CC2)cc1)C1=CSCCO1	x	-6.3	x	x	6.0
Cc1cc(C(=O)CSc2n[nH]c(N)n2)c(C)n1-c1ccc2c(c1)OCO2	3.2%	3.8	-0.9	-41.4	0.4
Cn1c(SCC(=O)Nc2nccs2)nnc1-c1ccccn1	x	0.8	x	x	4.4
CCC(C(=O)N1CCN(C(=O)c2ccco2)CC1)c1ccccc1 (stereo not drawn)	-3.5%	-0.2	2.3	-8.8	-4.7
O=C1NC2=C(C(=O)CCC2)C(c2ccc([N+](=O)[O-])cc2)N1 (stereo not drawn)	x	0.6	x	x	5.9
C[C@H]1CCC[C@]2(CC(=O)c3cc(F)ccc3O2)C1	x	0.7	x	x	-18.2
CN(Cc1cccs1)S(=O)(=O)c1cccs1	-16.2%	-0.4	-3.9	-1.7	-16.5
N#CC1=C(N)OC2=C(C(=O)CC(c3ccccc3)C2)C1c1ccoc1 (stereo not drawn)	-3.3%	1.5	7.1	-31.9	2.4
Cc1ccc(CN2C(=O)CCC2(C)C(=O)NCc2cccnc2)cc1 (stereo not drawn)	-6.3%	-0.9	0.5	-31.6	4.3
CC(=O)n1cc([C@H]2C=C(C(=O)N3CCOCC3)O[C@@H](OCc3ccc(CO)cc3)C2)c2ccccc21	-8.2%	2.5	2.9	x	-15.3
COc1ccc(-c2cc(-c3ccccc3)c(C#N)c(=S)[nH]2)cc1	4.2%	4.8	2.2	x	-0.9
Cc1cc(C)n(C(=O)CCCCCCCC(=O)n2nc(C)cc2C)n1	-3.3%	3.9	-5.2	-9.2	0.2
Cc1ccc(-c2csc(N3CCN(S(=O)(=O)c4ccc5c(c4)NC(=O)CO5)CC3)n2)cc1	x	-1.0	x	x	-5.0
CC(=O)C(Sc1nnnn1-c1ccc(O)cc1)c1ccccc1 (stereo not drawn)	x	0.1	x	x	5.0
CCCc1cc(=O)[nH]c(SCC(=O)N2N=C(c3ccc(Cl)cc3)CC2c2ccco2)n1 (stereo not drawn)	2.3%	1.1	7.7	1.4	5.1
CC(=O)NCCc1nc2cc(NC(=O)Nc3ccccc3)ccc2n1C	x	-3.1	x	x	3.6
O=C(/C=C/c1ccc2c(c1)OCO2)N1CCOCC1	6.0%	-1.3	-3.9	-25.6	0.5
c1csc(CNc2ncnc3nc[nH]c23)c1	5.3%	0.5	-3.3	-27.9	-5.3

The listing, previewed entries included:
SMILES	Mtb growth	RecA splice inh	Arbovirus inh	YopH inh	Mtb betalactam
O=C(Nc1ccc(C(=O)NCCCN2CCN(c3ccc(F)cc3)CC2)cc1)C1=CSCCO1	x	-6.3	x	x	6.0
Cc1cc(C(=O)CSc2n[nH]c(N)n2)c(C)n1-c1ccc2c(c1)OCO2	3.2%	3.8	-0.9	-41.4	0.4
Cn1c(SCC(=O)Nc2nccs2)nnc1-c1ccccn1	x	0.8	x	x	4.4
CCC(C(=O)N1CCN(C(=O)c2ccco2)CC1)c1ccccc1 (stereo not drawn)	-3.5%	-0.2	2.3	-8.8	-4.7
O=C1NC2=C(C(=O)CCC2)C(c2ccc([N+](=O)[O-])cc2)N1 (stereo not drawn)	x	0.6	x	x	5.9
C[C@H]1CCC[C@]2(CC(=O)c3cc(F)ccc3O2)C1	x	0.7	x	x	-18.2
CN(Cc1cccs1)S(=O)(=O)c1cccs1	-16.2%	-0.4	-3.9	-1.7	-16.5
N#CC1=C(N)OC2=C(C(=O)CC(c3ccccc3)C2)C1c1ccoc1 (stereo not drawn)	-3.3%	1.5	7.1	-31.9	2.4
Cc1ccc(CN2C(=O)CCC2(C)C(=O)NCc2cccnc2)cc1 (stereo not drawn)	-6.3%	-0.9	0.5	-31.6	4.3
CC(=O)n1cc([C@H]2C=C(C(=O)N3CCOCC3)O[C@@H](OCc3ccc(CO)cc3)C2)c2ccccc21	-8.2%	2.5	2.9	x	-15.3
COc1ccc(-c2cc(-c3ccccc3)c(C#N)c(=S)[nH]2)cc1	4.2%	4.8	2.2	x	-0.9
Cc1cc(C)n(C(=O)CCCCCCCC(=O)n2nc(C)cc2C)n1	-3.3%	3.9	-5.2	-9.2	0.2

Limited to Mtb betalactam and Arbovirus inh (two entries from above):
smiles,Mtb betalactam,Arbovirus inh
CCC(C(=O)N1CCN(C(=O)c2ccco2)CC1)c1ccccc1 (stereo not drawn),-4.7,2.3
N#CC1=C(N)OC2=C(C(=O)CC(c3ccccc3)C2)C1c1ccoc1 (stereo not drawn),2.4,7.1

Continuation.
SMILES	Mtb growth	RecA splice inh	Arbovirus inh	YopH inh	Mtb betalactam
Cc1ccc(-c2csc(N3CCN(S(=O)(=O)c4ccc5c(c4)NC(=O)CO5)CC3)n2)cc1	x	-1.0	x	x	-5.0
CC(=O)C(Sc1nnnn1-c1ccc(O)cc1)c1ccccc1 (stereo not drawn)	x	0.1	x	x	5.0
CCCc1cc(=O)[nH]c(SCC(=O)N2N=C(c3ccc(Cl)cc3)CC2c2ccco2)n1 (stereo not drawn)	2.3%	1.1	7.7	1.4	5.1
CC(=O)NCCc1nc2cc(NC(=O)Nc3ccccc3)ccc2n1C	x	-3.1	x	x	3.6
O=C(/C=C/c1ccc2c(c1)OCO2)N1CCOCC1	6.0%	-1.3	-3.9	-25.6	0.5
c1csc(CNc2ncnc3nc[nH]c23)c1	5.3%	0.5	-3.3	-27.9	-5.3
Cc1cnc(=O)[nH]c1SCC(=O)Nc1nccs1	x	1.6	x	x	-6.2
O=[N+]([O-])c1nn(-c2ccccc2)n(O)c1=NCc1ccc2c(c1)OCO2	-2.6%	1.7	-10.5	-3.5	88.2
O=C(c1ccc2nccnc2c1)N1CCN(Cc2ccc3c(c2)OCO3)CC1	3.9%	-0.5	7.2	-43.7	8.9
CC(=O)Nc1ccc(NC(=O)C(C)OC(=O)CCCOc2ccc(Cl)c(C)c2)cc1 (stereo not drawn)	x	-2.1	x	x	5.5
COc1cccc(NC(=O)COc2ccc3c(c2)CCC3)c1	74.3%	3.2	-4.2	x	90.5
CC(C)COP(=O)(OCC(C)C)C(O)c1ccccc1F (stereo not drawn)	-9.7%	1.9	3.4	-29.6	-3.2
CCOC(=O)C1=NN(C(C)=O)C2(CC(=O)N(c3cc(C)cc(C)c3)C2=O)C1 (stereo not drawn)	-1.7%	1.0	-14.4	-19.1	-0.5
C=CCn1cc(/C=C2/NC(=O)NC2=O)c2ccccc21	x	0.1	x	x	6.2
COC(=O)c1cc2oc3ccccc3c2n1CC(=O)Nc1ccccc1OC	0.6%	0.3	-3.0	-28.7	1.8
O=S1(=O)C[C@@H](O)[C@@H](Nc2ccccc2)C1	-3.5%	-1.3	x	x	-0.6
Cc1oc(C(C)(C)C)cc1C(=O)N1CCCC1C(=O)O (stereo not drawn)	-18.1%	x	0.4	-9.1	-1.9
CC(OC(=O)c1ccccc1NS(=O)(=O)c1cccc(N)c1)C(=O)N(C)Cc1ccccc1 (stereo not drawn)	3.6%	5.7	8.6	-18.0	2.1
CC1(C)Cc2ccccc2C(=NC(Cc2ccccc2)C(=O)O)N1 (stereo not drawn)	x	-1.8	x	x	-1.9
CC(C)N(C(=O)Cn1cc(SCC(=O)NCc2ccco2)c2ccccc21)C(C)C	-0.8%	1.0	-3.9	x	-3.4
O=C(O)C1CCCCC1C(=O)NCCc1ccc(F)cc1 (stereo not drawn)	-6.0%	-2.8	-0.6	x	11.1
COc1ccc(S(=O)(=O)Nc2cccc(-n3cnnn3)c2)cc1	x	-1.7	x	x	-5.2
COc1ccccc1N(CC(=O)NC(C)(C)C)C(=O)c1ccc(Cl)nc1	-5.3%	-1.8	3.5	x	-0.5
COCCCn1c(C(=O)NCCC2=CCCCC2)cc2c(=O)n3ccccc3nc21	x	-0.1	x	x	9.5
Cc1cc(NC(=O)c2cnn3c(C(F)(F)F)cc(-c4ccccc4)nc23)no1	0.5%	-0.2	5.2	-7.8	2.4
CNC(=O)CSc1nnc(-c2cccc(S(=O)(=O)N3CCOCC3)c2)n1-c1ccc(F)cc1	-4.0%	0.3	-0.3	-17.8	-9.1
CCC(=O)c1ccc(OCC(=O)OCC(=O)N2c3ccccc3CC2C)cc1 (stereo not drawn)	x	4.0	x	x	21.3
N#Cc1nc(/C=C/c2ccccc2)oc1NCCCN1CCOCC1	1.9%	-45.7	x	x	-1.7
CN1C2CCC1CC(OC(=O)c1cc(Cl)cc(Cl)c1)C2 (stereo not drawn)	2.0%	-3.7	-17.7	7.2	-15.2
CC(C)CC(=O)Nc1nc(=S)ss1	-7.4%	1.4	-0.7	-41.3	-3.0
CCN(CCO)c1ccc(N=Nc2cc(C)[nH]n2)cc1	-10.7%	-0.2	x	x	0.9
CCN(CC)CCCN(C(=O)c1ccccc1C)c1nc(-c2ccc(OC)cc2)cs1	x	0.4	x	x	-1.1
O=C(O)/C=C/C(=O)Nc1ccc(OCc2ccccc2)cc1	32.9%	2.5	x	x	18.8
Cc1ccc(SCC(=O)Nc2ccc(N3CCN(c4ccccc4)CC3)c(F)c2)cc1	3.1%	-1.5	-8.2	-45.1	3.3
O=C(Nc1nc(=O)c2ccccc2s1)c1ccccc1	6.9%	0.3	-12.8	-14.8	87.7
Cc1ccc(NS(=O)(=O)c2cc(C(=O)NCCSc3ccc(C)cc3)ccc2C)cc1	2.0%	3.6	-25.6	-13.6	3.4
CC(=O)N1CN(C2CCS(=O)(=O)C2)Cc2c1sc1c2CCCC1 (stereo not drawn)	-1.1%	1.4	1.7	-5.5	11.5
O=S(=O)(c1ccccc1)N1CCN(Cc2cccc(Br)c2)CC1	x	7.7	x	x	2.3
COc1ccc(N=CC2=C(O)CC(c3ccccc3)CC2=O)c(OC)c1 (stereo not drawn)	77.9%	-4.8	-15.4	-35.6	-3.3
Cc1ccc(-n2c(C)cc(C=C3C(=O)CC(C)(C)CC3=O)c2C)cc1	6.6%	-0.1	8.7	-45.3	4.2
COc1ccc(-c2nc3ccccc3c(=O)n2CCc2ccc(O)cc2)cc1	x	0.4	x	x	6.3
CCOC(=O)N/N=C(\C)c1ccc(OC(F)F)cc1OC(F)F	0.5%	2.6	-4.9	-1.6	-0.6
O=c1[nH]c(=S)n(C2CC2)c(O)c1/C=N/Nc1ccccc1	55.2%	-8.8	-39.3	-25.1	37.8
CC1CCN(Cc2nnnn2-c2ccc(Cl)cc2)CC1	-2.1%	-2.3	-1.7	-5.2	8.4
COc1ccc(NC(=O)Nc2ccccc2F)c([N+](=O)[O-])c1	-1.6%	-2.8	-3.5	x	4.5
O=C(c1ccc(Br)o1)N1CCN(c2ccc(F)cc2)CC1	-4.0%	-4.2	-3.2	-33.5	1.5
O=C(Nc1ccc(N2CCN(C(=O)c3ccco3)CC2)cc1)c1ccccc1	7.2%	-1.5	-6.5	x	-8.2
CC(=O)Nc1cccc(NC(=O)C2C3C=CC(C3)C2C(=O)O)c1 (stereo not drawn)	x	-4.3	x	x	9.6
O=C(N/N=C1\CCCCc2ccccc21)c1ccccn1	3.2%	1.0	11.9	x	-5.0
CCc1nnc(NC(=O)c2cccc(S(=O)(=O)N3CCCC3)c2)s1	x	2.4	x	x	5.7
CCc1cccc(NC(=O)Cn2c3[n+](c4ccc(C(F)(F)F)cc42)CCCCC3)c1	12.0%	-1.7	-3.6	-0.8	4.6
CCOC(=O)N1CCN(CC(O)COCc2ccc(Cl)cc2)CC1 (stereo not drawn)	-2.5%	x	-0.1	-19.0	x
COc1ccc(CC(NC(C)=O)C(=O)NC2CCN(C(=O)c3ccncc3)CC2)cc1OC (stereo not drawn)	x	0.5	x	x	-1.7
Cc1[nH]c2ccc(C(=O)NCCN3CCOCC3)cc2c1C	x	-2.6	x	x	-1.4
S=C(Nc1ccc2nccnc2c1)N1CCCC1	-11.6%	-1.7	4.9	x	-4.2
O=C(NCc1ccccn1)Nc1ccc(F)cc1F	x	-0.5	x	x	-2.8
CCN1C(=O)N[C@@H](c2cccc(C(F)(F)F)c2)C(C(C)=O)=C1C	9.7%	0.6	x	x	-3.1
S=C(NCCN1CCCCC1)Nc1ccccc1	-3.5%	0.1	1.2	x	-7.0
Cc1occc1-c1nnc(SCC(=O)NC(C)(C)C)n1C(C)c1ccccc1 (stereo not drawn)	3.4%	2.6	1.6	-24.2	1.2
